gsp ag – gsp mutant agonism | gsp mutant cells, cAMP HTRF, 30 min; control for the full effect not named in the record | Potency, µM (series often up to 76.9 µM), inactives show top-dose activation (cAMP increase), usual class: activators | actives 0.13% (n = 340,000); active = well fitted activation curve with a large enough effect; inconclusive = small, poorly fitted or top-dose-only effect, or another doubt; inactive = no such curve, though single readings can be large or run the other way; cell line not stated here;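 also: phosphodiesterase inhibitor Ro 20-1724 added with compounds to block cAMP breakdown; potency is read from the fitted curve at half-maximal effect; nearly all actives have a fitted effect of over 60% in size; about a fifth of the inactives were tested at one dose only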
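Cells stably selected in G418 were plated at 2000/well, grown 16-24 hr, then given compounds in DMSO with the PDE inhibitor […] (300 uM solution added) for 30 min at 37C; cAMP was read by HTRF.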
gsp antag – gsp mutant antagonism | AID 624288 | gsp-mutant cells, cAMP HTRF, 30 min; control for the full effect not named in the record | actives 0.4% (n = 340,000) | Potency, µM (highest dose often 76.9 µM), for inactives: at the highest dose activity change, negative = inhibition, most hits filed as inhibitors; active = falling curve of any shape with a large fitted effect; inconclusive = falling curve, mostly with a smaller effect; inactive = flat or rising curve; cell line not stated here;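 also: intracellular cAMP measured with PDE inhibitor Ro 20-1724 present during compound exposure; potency is read from the fitted curve at half-maximal effect; % is scaled to controls: 0 for no effect and ±100 for the full control effect; nearly all actives have a fitted effect of over 65% in size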
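Cells in G418 medium, seeded 16-24 h, 37C; buffer exchange to DPBS + 1 mM CaCl2, 0.5 mM MgCl2, 0.05% BSA; cpds in DMSO + […] (300 uM stock), 30 min 37C; HTRF cAMP detection.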
TRPV1 PAM – enhances activation of the human vanilloid receptor TRPV1. Q8NER1. TRPV1-expressing cells, Fluo-8 calcium influx, capsaicin EC20 potentiation; host cell line not named in the record; control for the full effect not named in the record. potentiation, % at 8.33 µM. actives 0.02% (n = 320,000). AID 540277; active means potentiation above 80%; inconclusive means 30% to 80%; inactive means below 30%; also: 0% is about no effect
Target sequence (Q8NER1 whole entry, looked up): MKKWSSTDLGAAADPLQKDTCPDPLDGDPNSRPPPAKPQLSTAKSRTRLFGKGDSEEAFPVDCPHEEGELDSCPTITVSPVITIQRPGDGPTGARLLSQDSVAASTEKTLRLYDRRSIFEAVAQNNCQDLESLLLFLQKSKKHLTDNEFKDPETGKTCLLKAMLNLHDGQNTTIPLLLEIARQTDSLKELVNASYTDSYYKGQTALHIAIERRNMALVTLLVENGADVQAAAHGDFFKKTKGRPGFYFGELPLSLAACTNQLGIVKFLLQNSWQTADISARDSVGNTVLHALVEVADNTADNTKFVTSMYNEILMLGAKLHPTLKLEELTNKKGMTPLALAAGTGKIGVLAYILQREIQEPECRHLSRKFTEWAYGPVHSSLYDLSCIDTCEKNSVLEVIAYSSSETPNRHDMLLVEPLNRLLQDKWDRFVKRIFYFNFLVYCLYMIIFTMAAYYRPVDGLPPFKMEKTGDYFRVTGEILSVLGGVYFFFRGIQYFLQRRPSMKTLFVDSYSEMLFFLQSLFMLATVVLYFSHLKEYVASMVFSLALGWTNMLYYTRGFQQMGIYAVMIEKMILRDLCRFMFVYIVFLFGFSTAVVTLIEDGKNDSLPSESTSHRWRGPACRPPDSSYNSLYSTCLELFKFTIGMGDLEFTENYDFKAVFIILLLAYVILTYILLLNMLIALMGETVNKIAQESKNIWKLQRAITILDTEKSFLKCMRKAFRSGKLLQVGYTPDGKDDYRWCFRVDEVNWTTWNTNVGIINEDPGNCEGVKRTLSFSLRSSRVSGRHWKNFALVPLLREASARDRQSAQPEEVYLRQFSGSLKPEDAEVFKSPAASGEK
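Fluo-8 calcium influx in TRPV1-expressing cells, kinetic read (ex 480/em 520 nm). Compound added and read 3 min for agonist activity, followed by capsaicin at EC20 final and 2 min further read for enhancement.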
ClpP mod – qHTS Assay for Activators of ClpP. Potency, µM (top dose mostly 57.5 µM), without a hit: top-dose activity change, negative = active. ATP-dependent Clp protease proteolytic subunit (Bacillus subtilis (strain 168)), P80244. actives 1.9% (n = 340,000). AID 651965, 2013. purified B. subtilis ClpP, FRET peptide cleavage, 20 min; active = well fitted falling curve with a large enough effect; inconclusive = small, poorly fitted or top-dose-only effect; inactive = no such curve, though single readings can be large or run the other way; also: potency is read from the fitted curve at half-maximal effect; the source files actives as falling curves though it sought activators and does not explain the sign; nearly all actives have a fitted effect of over 65% in size; many hits overshoot -100%
Target sequence (P80244 whole entry, looked up): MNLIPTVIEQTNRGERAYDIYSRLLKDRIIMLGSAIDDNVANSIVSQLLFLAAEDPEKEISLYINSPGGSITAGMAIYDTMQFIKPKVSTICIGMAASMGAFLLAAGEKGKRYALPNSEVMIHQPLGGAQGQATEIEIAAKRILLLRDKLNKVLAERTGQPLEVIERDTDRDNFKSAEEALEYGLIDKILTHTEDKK
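Buffer: 100 mM Tris/HCl pH8, 100 mM KCl, 0.05% low protease BSA, 2.5% glycerol, 0.01% Tween-20. ClpP 10 microg/mL final; 20 min RT; delta FRET normalized to ADEP and DMSO controls.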
CtBP-E1A blk – CtBP/E1A binding inhibition; AlphaScreen GST-E1A/His-CtBP binding, 1536-well; hits give low values; control for the full effect not named in the record; activity change, % (test concentration not listed); actives 0.49% (n = 340,000); AID 651724; in the data active means activity change below about -65%; inconclusive means about -30% to -65%; inactive means above about -30%; also: % is scaled to controls: 0 for no effect and ±100 for the full control effect; compound concentration not given in the record
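Protein mix (5X: 125 nM each GST-E1A, His-CtBP) was incubated with pinned compound 2 h at 37 deg C in dark, in 50 mM Tris pH 8.0 buffer with 300 mM NaCl. Glutathione donor and nickel acceptor beads followed; AlphaScreen signal read after 1 h.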
Menin-MLL FL inh – displaces fluorescein MLL peptide from human menin; 290,000 tested, under 10 active; FP activity change, % at 61.4 µM; Fluorescence polarization, fluorescein-MLL peptide displacement from menin; inconclusive = falling polarisation curve, or a change in total fluorescence; inactive = total fluorescence flat and polarisation flat or rising; no compound was filed as active; the % refers to the polarisation; negative = inhibition;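 also: % of control where 0% means no effect; inhibitors lower the polarisation; unlabelled MLL peptide was the positive control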
Sfp PPTase inh – inhibitors of Bacillus subtilis Sfp phosphopantetheinyl transferase; Biochemical Sfp PPTase activity, qHTS; Potency, µM, for the others: max response, negative = inhibition, hits mostly inhibitors; AID 1490; actives 3.5% (n = 310,000); active = well fitted inhibition curve with a large enough effect; inconclusive = small, poorly fitted or top-dose-only effect, or another doubt; inactive = no such curve, though single readings can be large or run the other way;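 also: the enzyme is Sfp with the accession as filed and its product quenches rhodamine fluorescence; potency is read from the fitted curve at half-maximal effect; 0% = enzyme reaction without inhibitor and -100% = no enzyme wells; top concentration of the series not given in the record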
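After 15 min at room temperature with compound, 15 nM Sfp received 5 uM rhodamine-CoA plus 12.5 uM BHQ-2-ybbR (50 mM Hepes pH 7.6, 10 mM MgCl2). Rate came from the fluorescence difference over 30 min, ex 525/em 598 nm.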
An asterisk follows results filed as active; ? = inconclusive; nt = no result given; & = joins results of further samples; [ ] = remark or other dose.

The line under a structure holds: gsp ag, CtBP-E1A blk, Sfp PPTase inh, gsp antag, TRPV1 PAM, Menin-MLL FL inh, ClpP mod
CC1CCC2(CC1)NC(=O)N(NC(=O)c1cccs1)C2=O (centres undefined)
→ -3%, nt, nt, 5%, 6, nt, -0.3%
CCCCNc1nc(=S)n(-c2ccccc2)c(C)c1C(C)=O
→ 2%, 2, -3%, 4%, 3, 1.5, nt
COc1ccc(NC(=O)N(C)C[C@@H]2Oc3ccc(NC(=O)NC(C)C)cc3CC(=O)N([C@H](C)CO)C[C@@H]2C)cc1
→ 22%, 4, nt, 14%, nt, nt, -0.3%
COC(=O)c1ccc(OC(=O)C2CSC3(C)CCC(=O)N23)cc1 (centres undefined)
→ 14%[15.4 µM], -24, nt, 10%, 15, nt, -2.3%
Cc1ccc(NC(=O)c2ccc(NC3=NC4CS(=O)(=O)CC4S3)cc2)cc1 (centres undefined)
→ -37%[inhibitor], 1, 3%, 4%, -4, nt, -2.8%
O=C(NC1(C(F)(F)F)NC(=O)N(Cc2ccco2)C1=O)c1cccs1 (centres undefined)
→ 3%, -2, 35µM*, -9%, 3, 2.4, -3.7%
COc1ccc(NC(=O)c2noc(C(C)C)c2[N+](=O)[O-])cc1
→ ?, -2, 13%, -14%, -17, -4.9, nt
CCC(C(=O)NC1CCCC1)N(C(=O)Cn1nnc(-c2ccc(OC)c(OC)c2)n1)C1CCCCC1 (centres undefined)
→ 2%, 2, -9%, -12%, 5, -0.7, -1.3%
O=C(CCn1ccc2cc(S(=O)(=O)N3CCCC3)ccc21)NCc1ccccc1F
→ ?, nt, -11%, -7%, -22, nt, -4.6%&-1.1%
COc1ccc(-c2cc(C(F)(F)F)n3ncc(C(=O)NCc4ccco4)c3n2)cc1
→ -17%, -13, 56µM*, -8%[15.4 µM], -23, 5.0, -14%
Cc1nc(SCC(=O)Nn2c(-c3ccccc3)nc3ccccc3c2=O)n[nH]1
→ -10%, 9, 15%, 10%, 10, 0.8, 3.0%
Cc1cc(NC(=O)Nc2cccc(Cl)c2)n(C(C)(C)C)n1
→ 23%, 0, 7%, -6%, ?, -0.2, nt
COc1ccccc1NC(=O)CSC1=NC(=O)C(NC(C)=O)C(=O)N1 (centres undefined)
→ 10%, 1, -1%, 6%, -2, 0.6, 28µM*
O=C(CCc1ccc(O)c(O)c1)NNC(=S)NCCc1ccccc1
→ 15%, 7, 1%, 8%, -2, 1.9, -1.2%
COc1ccc(Cl)cc1NC(=O)CSc1nnc(CNC(=O)c2ccco2)o1
→ -26%, -15, 20%, -17%, -1, 0.3, -3.5%
COC(=O)c1ccccc1CCC(C)=O
→ -31%[inhibitor], 7, 4%, -1%, 19, -0.9, -0.1%
CC1=CC(=O)N(c2ccc(C)cc2)C1c1ccc(Cl)cc1 (centres undefined)
→ 0%, 8, -10%, -20%, 2, 5.4, -1.2%
COc1ccc(NC(=O)N(C)C[C@H]2OCc3cn(nn3)CCCC(=O)N([C@@H](C)CO)C[C@@H]2C)cc1
→ -29%, 5, nt, nt, nt, nt, -0.1%
CCOc1cc(/C=C2/COc3ccccc3C2=O)ccc1OCC(=O)N(C)C
→ -35%[inhibitor], nt, -14%, 4%, 1, 5.8, 1.8%
CCn1nc(C)c(CNC(=O)c2cc(COc3ccccc3SC)on2)c1C
→ 3%, -4, ?, -10%, -25, nt, 0.5%
CC1(C)C(c2cccs2)=NC(c2ccccc2)N1O (centres undefined)
→ 5%, 5, -6%, 2%, -4, 5.0, 0.8%
CC(=O)OC(C(=O)NCc1ccc(F)cc1)c1ccccn1 (centres undefined)
→ 8%, 6, -1%, 8%, ?, 2.7, 0.9%
O=C(CCc1ccc(Oc2cc([N+](=O)[O-])cc([N+](=O)[O-])c2)cc1)N1CCCCC1
→ 0%, ?, 14µM*, -15%, -8, -0.7, 0.8%
COc1ccc(C(=O)Nc2cccc(-c3nc4ncccc4o3)c2C)cc1
→ 14%, -7, 21%, ?, 5, -0.2, -3.2%
O=C(CC(NC(=O)c1ccccc1Cl)c1ccccc1)NC1=NCCS1 (centres undefined)
→ 1%[15.4 µM], 5, 26%, 11%, 4, 1.9, -0.2%
Cc1cccc(NC(=O)c2ccc3c(c2)C(=O)N(c2ccccn2)C3=O)c1C
→ 24%, -15, -1%, -1%, -5, nt, -1.9%
O=C(Cc1ccc(S(=O)(=O)N2CCOCC2)s1)N1CCN(c2cccc(C(F)(F)F)c2)CC1
→ -27%, -5, 8%, ?, 7, nt, -1.8%
CCc1cc(C(=O)Cc2cnn(-c3ccccc3)c2)c(O)cc1O
→ -33%[inhibitor], -8, -29%, -20%, 11, -0.6, ?
CCc1cc2c(=O)nc3n(c2s1)Cc1ccccc1/C3=C(/O)c1ccccc1Cl
→ -17%, -2, -13%, -32%, -6, 3.0, 0.9%
Cc1ccc(-c2nc(CS(=O)CC(=O)NC3CCCCC3)c(C)o2)cc1 (centres undefined)
→ 37%, -2, 3%, 1%, -9, nt, -5.6%

Compounds from the list above containing two or more sulfur atoms, in the order listed:
The line under a structure holds: gsp ag, CtBP-E1A blk, Sfp PPTase inh, gsp antag, TRPV1 PAM, Menin-MLL FL inh, ClpP mod
Cc1ccc(NC(=O)c2ccc(NC3=NC4CS(=O)(=O)CC4S3)cc2)cc1 (centres undefined)
→ -37%[inhibitor], 1, 3%, 4%, -4, nt, -2.8%
O=C(Cc1ccc(S(=O)(=O)N2CCOCC2)s1)N1CCN(c2cccc(C(F)(F)F)c2)CC1
→ -27%, -5, 8%, ?, 7, nt, -1.8%

The list continues:
The line under a structure holds: gsp ag, CtBP-E1A blk, Sfp PPTase inh, gsp antag, TRPV1 PAM, Menin-MLL FL inh, ClpP mod
Cc1cccc(C(=O)Nc2nnc(-c3cccnc3)o2)c1
→ -4%[15.4 µM], -1, 22%, -16%, 18, -2.5, nt
COCCn1c(=S)[nH]c2cc(C(=O)N3CCCC(C)C3)ccc2c1=O (centres undefined)
→ 27%, 3, -13%, ?, 8, nt, 0.0%
Cc1nnc(SCC(=O)N/N=C/c2cn(-c3ccccc3)nc2-c2ccc(F)cc2)n1-c1ccccc1
→ -29%, 4, 8%, -2%, 0, -0.8, 36%
COc1cc(/C=C2/NC(=O)N(Cc3ccccc3F)C2=O)cc(OC)c1OC
→ 6%, 2, -12%, -20%, -3, 1.9, nt
COC(C[C@@H](O)[C@@H](C)[C@@H](O)COCc1ccccc1)OC
→ nt, 32, 25%, 15%, 8, 3.0, 0.7%
CCc1c(O)nc(SCC(=O)N2CCc3cc(OC)c(OC)cc3[C@@H]2C)[nH]c1=O
→ nt, 0, 17%, 1%, 6, 1.9, -2.9%
CCC(C(=O)OCC(=O)Nc1cccc(OC)c1)c1ccccc1 (centres undefined)
→ ?, nt, 16%, -6%, -7, -2.8, -0.5%
Cc1nc(-c2ccc(F)cc2)c(CC(=O)Nc2ccc(C)c(S(=O)(=O)N3CCOCC3)c2)s1
→ -3%[15.4 µM], -10, 3%, -5%, -5, nt, nt
O=c1c2ccccc2sn1-c1ccc(Cl)cc1
→ -13%, -2, nt, nt, nt, nt, 0.2%
Cc1nc2cc(NC(=O)NCc3ccco3)ccc2o1
→ 10%, -2, 12%, -1%, 1, 2.2, -3.2%
O=C(Cc1ccccc1F)NNC(=O)c1ccncc1
→ -10%, -19, 14%, 16%, 1, nt, -1.7%
O=C(Cc1cccs1)NCCc1ccc(F)cc1
→ -12%[15.4 µM], -1, 22%, 1%, -14, 1.9, 0.5%
O=C(c1ccc(F)cc1)N1CCN(c2ccc([N+](=O)[O-])c(N3CCOCC3)c2)CC1
→ -2%, -10, 5%, -4%, -10, 7.2, 0.6%
C=CCn1c(SCC(=O)N2CCCCC2)nc(O)cc1=O
→ 3%, 11, 19%, -21%, 2, 0.8, 1.2%
COc1ccc(NC(=O)c2ccc(Br)c(S(=O)(=O)N3CCOCC3)c2)cc1
→ -9%[15.4 µM], -3, 9%, ?, -27, 0.0, 0.0%
COc1ccc(N2C(=O)c3cccc4cc(Br)cc(c34)C2=O)cc1
→ 22%, nt, 9%, 0%, 3, 1.9, -1.3%
Cc1ccc(C2C(C(=O)c3cc4ccccc4o3)=C(O)C(=O)N2CCN2CCOCC2)o1 (centres undefined)
→ 28%, -4, 50µM*, 7%, 9, ?, -8.7%
CCCN(CCC)S(=O)(=O)c1ccc(C(=O)N2CCCc3ccccc32)cc1
→ 1%, -1, -4%, -26%, -4, 2.8, 0.4%
Cc1ccc(N=Cc2sc(O)c3ccccc23)c(C)c1
→ 8%, 2, 22µM*, -13%, 28, ?, 4.1%
Cc1ccc(NC(=O)c2cc(S(=O)(=O)N3CCOCC3)cn2C)cc1F
→ 5%, -1, -4%, 2%, -33, 1.1, 1.8%
CC(=NCC1CCCO1)C1=C(O)CC(C)(C)CC1=O (centres undefined)
→ -21%, -2, 10%, 5%, 1, -0.5, -1.3%
COc1ccc(C(CC(=O)N2CCOCC2)C(C)C)cc1 (centres undefined)
→ -16%, 1, 5%, 6%, -8, 5.5, 1.5%
C[C@H](NS(=O)(=O)c1ccccc1)C(=O)N1CCN(C(c2ccccc2)c2ccccc2)CC1
→ -25%, -14, nt, -12%, nt, nt, -4.1%
O=C(NCCCN1CCOCC1)c1coc2ccccc2c1=O
→ 4%, 1, 17%, 13%, -6, 5.0, 0.5%
CCCCCc1nnc(NC(=O)Cc2ccc([N+](=O)[O-])cc2)s1
→ 15%, -2, -7%, -7%, 1, -2.4, 2.7%
CS(=O)(=O)N1CCC(C(=O)NCC2CCCO2)CC1 (centres undefined)
→ 3%, -8, 0%, -2%, 1, -0.6, -1.6%
CC1=C(C(=O)OC(C)C)C(/C=C/c2ccccc2)NC(=O)N1 (centres undefined)
→ -48%[inhibitor], 0, 1%, 7%, -2, 0.7, 2.4%

Compound activity deposited in PubChem by National Center for Advancing Translational Sciences (NCATS).
